# Assay outcomes: PubChem, Broad Institute
# rRNA inh HTS: inhibitors of bacterial rRNA selective over humanized ribosomes | 350,000 tested, 1.6% active | GFP signal change (wild-type ribosome), % (test concentration not listed) | AID 720706 | E. coli WT GFP vs humanized-ribosome RFP mutants, fluorescence, 24 h; stronger effect = lower value; DMSO median 0, no signal -100;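 active = significant combined selectivity score with lowered wild-type GFP, culture density cut under 30%, mutant RFP and density less affected; inactive = any of these conditions unmet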; note: one replicate is shown; some compounds called inactive have numbers as strong as hits
# MLL AF4-AF9 inh: MLL-AF4/AF9 protein interaction inhibition; P42568; AlphaScreen, biotin-AF4 peptide binding to FLAG-AF9; inhibition, % at 10 µM; 350,000 tested, 0.47% active; AID 651704;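 active = every replicate reaching a set inhibition limit, whatever the replicate mean, cut at about 25% in these data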;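 note: 0% = plate neutral control median and 100% = total signal loss; the record names both 10 and 1 µM as test concentration; the first replicate is given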
# Target sequence (P42568 whole entry, looked up): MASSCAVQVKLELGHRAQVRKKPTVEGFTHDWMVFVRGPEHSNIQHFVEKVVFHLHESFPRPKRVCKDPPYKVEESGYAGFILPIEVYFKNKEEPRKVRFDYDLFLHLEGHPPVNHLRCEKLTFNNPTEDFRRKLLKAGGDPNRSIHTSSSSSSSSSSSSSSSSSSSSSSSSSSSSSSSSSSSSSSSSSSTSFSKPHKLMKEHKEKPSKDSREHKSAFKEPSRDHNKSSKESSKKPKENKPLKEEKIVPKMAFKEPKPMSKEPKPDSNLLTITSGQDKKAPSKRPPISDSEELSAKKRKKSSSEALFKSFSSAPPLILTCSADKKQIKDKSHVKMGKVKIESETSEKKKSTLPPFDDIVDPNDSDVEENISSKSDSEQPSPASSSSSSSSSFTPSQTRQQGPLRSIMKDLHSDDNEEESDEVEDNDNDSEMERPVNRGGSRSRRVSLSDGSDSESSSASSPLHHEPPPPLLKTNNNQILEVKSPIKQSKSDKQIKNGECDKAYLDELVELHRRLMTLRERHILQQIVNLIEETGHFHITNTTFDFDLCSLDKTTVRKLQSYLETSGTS
# rRNA inh HTS OD600: second read-out of rRNA inh HTS, no call of its own (marks repeat the call); OD600 change, %; measured here: OD600 growth;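 optical density of the mix in the first replicate; 0 = DMSO median and -100 = no signal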
# rRNA inh HTS RFP: further read-out of rRNA inh HTS, marked with its call; RFP signal change, %; measured here: RFP humanized mutant strains;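 first replicate; 0 = DMSO median and -100 = no signal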
# Starred values were filed as active, the others as inactive. A portion of the library. The share of hits here may be higher or lower than overall.
Structure	rRNA inh HTS	rRNA inh HTS OD600	rRNA inh HTS RFP	MLL AF4-AF9 inh
C[C@@H]1CN([C@@H](C)CO)C(=O)c2cc(NS(=O)(=O)c3ccc(F)cc3)ccc2O[C@H]1CN(C)Cc1ccc(C(F)(F)F)cc1	-1	-27	0.4	-4.1
CCCN(C)C[C@@H]1Oc2cc(C#CCC(C)C)ccc2S(=O)(=O)N([C@@H](C)CO)C[C@@H]1C	0	-33	36	6.8
CO[C@H]1CN(C)C(=O)c2cc(NC(=O)c3nc4ccccc4s3)ccc2OC[C@H](C)N(Cc2ccncc2)C[C@@H]1C	-12	-13	19	7.5
COc1cccc(CN2CC3(C2)CN(C(=O)C2CC2)[C@H](CO)c2c3c3ccc(OC)cc3n2C)c1	0	-9	12	27*
CCCC#Cc1ccc([C@@H]2[C@H]3CN(C(=O)Cc4cccnc4)CC(=O)N3[C@H]2CO)cc1	-1	3	-1.8	-3.3
O=C(CN1CCOCC1)N[C@@H]1CC[C@H](CCNC(=O)C2CCC2)O[C@@H]1CO	3	-3	-2.4	0.1
COc1ccc(S(=O)(=O)Nc2ccc3c(c2)C(=O)N([C@H](C)CO)C[C@@H](C)[C@@H](CN(C)C(=O)Nc2ccc(C(F)(F)F)cc2)OCCCC[C@@H](C)O3)cc1	4	1	-2.2	-5.5
C[C@H](CO)N1C[C@H](C)[C@@H](CN(C)C(=O)Nc2ccc(C(F)(F)F)cc2)Oc2ncc(C3=CCCC3)cc2C1=O	-3	-6	0.6	-1.2
C[C@H]1CN([C@@H](C)CO)C(=O)Cc2cc(NC(=O)C3CCCCC3)ccc2O[C@H]1CN(C)C(=O)Nc1cccc2ccccc12	-2	1	-1.3	-3.0
C[C@@H]1CN([C@@H](C)CO)C(=O)Cc2cc(NC(=O)CCN3CCOCC3)ccc2O[C@@H]1CN(C)C(=O)Nc1cccc2ccccc12	-1	16	-0.9	1.0
CN(C)CCNC(=O)C1(C)Cc2c(-c3cccc(C(F)(F)F)c3)ccnc2O1 (configuration not stated)	7	20	5.4	0.2
C=CCNc1cccc2c1S(=O)(=O)N[C@H](C)CO2	24	16	1.4	-6.8
COc1cccc(CNc2nc(NC(C)C)nc3ccsc23)c1	-51	-80	-18	10
CCS(=O)(=O)N1CC2(CN(Cc3cc(F)ccc3F)[C@H](CO)c3c2c2ccc(OC)cc2n3C)C1	-7	-27	-8.8	10
O=C(C[C@H]1CC[C@@H]2[C@H](COC[C@@H](O)CN2C(=O)c2ccccc2)O1)NCc1cccc(F)c1	5	-1	17	-9.8
Brc1ccc2nc(C3CCCCC3)c(Cc3ccccc3)n2c1	-8	-36	18	4.7
C[C@@H]1CN([C@H](C)CO)C(=O)c2cc(NS(=O)(=O)c3ccc(Cl)cc3)ccc2O[C@@H]1CN(C)Cc1ccc(Cl)c(Cl)c1	1	-12	4.5	0.6
CCC(=O)Nc1ccc2c(c1)C(=O)N(C)[C@@H]1CC[C@@H](CC(=O)N[C@H](C)c3ccccc3)O[C@@H]1CO2	-2	-7	-1.5	-1.1
CO[C@@H]1CN(C)C(=O)c2ccc(NS(=O)(=O)c3ccc(Oc4ccccc4)cc3)cc2OC[C@H](C)NC[C@H]1C	1	-7	4.7	2.0
N#C[C@H]1[C@@H](c2ccc(-c3ccccc3F)cc2)[C@@H](CO)N1C(=O)Cc1ccccc1	-13	-60	1.2	-1.2
COc1ccc(CNC(=O)C2Cc3c(-c4ccccc4)ccnc3O2)cc1OC (configuration not stated)	-2	-13	2.0	0.3
COc1ccccc1-c1ccccc1[C@H]1[C@@H](C#N)N(C(=O)C2CCC2)[C@H]1CO	-1	4	0.9	-2.8
COC(=O)[C@]12C[C@H](CC(=O)NCc3ccc(OC)c(OC)c3)C(=O)N(Cc3ccc4c(c3)OCO4)C1=C[C@H](COCc1ccccc1)O[C@@H]2C	4	1	6.9	-0.6
CCC(=O)NC[C@@H]1[C@H](c2ccccc2)[C@@H](CO)N1C(=O)C1CCC1	1	0	-1.8	-2.7
OC(c1ccc(Cl)c(F)c1)c1ncc(-c2ccc(F)cc2)[nH]1 (configuration not stated)	0	-12	0.6	10
C[C@H](CO)N1C[C@H](C)[C@H](CN(C)Cc2ccc(C(F)(F)F)cc2)Oc2ccc(NC(=O)Cc3ccccc3)cc2CC1=O	-3	-10	4.5	-0.8
O=C(C[C@@H]1C[C@H]2c3cc(NC(=O)Nc4ccccc4F)ccc3O[C@H]2[C@@H](CO)O1)NCc1ccccn1	-1	0	0.7	1.0
C/C=C/c1ccc([C@H]2[C@H](CO)N3CCCCN(C(=O)Nc4ccc(OC)cc4)C[C@@H]23)cc1	-11	6	1.6	9.7
CCC(=O)N1CC[C@@H]2[C@@H](CO)N(C)c3ccc(-c4ccc(F)cc4)cc3[C@@H]21	0	-20	0.1	18
CO[C@H]1CN(C)C(=O)c2ccc(NC(=O)C3CCCCC3)cc2OC[C@H](C)N(C(=O)c2ccccc2)C[C@@H]1C	1	1	-0.8	1.2

# Continued; it opens with the two that closed the last part.
Structure	rRNA inh HTS	rRNA inh HTS OD600	rRNA inh HTS RFP	MLL AF4-AF9 inh
CCC(=O)N1CC[C@@H]2[C@@H](CO)N(C)c3ccc(-c4ccc(F)cc4)cc3[C@@H]21	0	-20	0.1	18
CO[C@H]1CN(C)C(=O)c2ccc(NC(=O)C3CCCCC3)cc2OC[C@H](C)N(C(=O)c2ccccc2)C[C@@H]1C	1	1	-0.8	1.2
CC=Cc1ccc2n(c1=O)C[C@@H]1[C@@H](CO)[C@H](C(=O)NC3Cc4ccccc4C3)[C@H]2N1C(C)=O (mixture of isomers)	-1	2	-2.6	-4.1
CO[C@H]1CN(C)C(=O)c2cc(NS(=O)(=O)c3cccc(Cl)c3)ccc2OC[C@@H](C)NC[C@H]1C	2	4	-2.2	-8.1
COc1ccc(NC(=O)Nc2ccc3c(c2)CC(=O)N([C@@H](C)CO)C[C@H](C)[C@@H](CN(C)C(=O)Nc2ccc(F)cc2)O3)cc1	2	5	-1.2	-3.8
O=C(C1CCC1)N1CC(=O)N2[C@@H](CO)[C@@H](c3ccc(C#Cc4cccc(F)c4)cc3)[C@@H]2C1	-60	-79	-12	-3.0
C[C@@H]1CN([C@H](C)CO)C(=O)c2cc(C3=CCCC3)cnc2O[C@H]1CN(C)Cc1ccc(F)cc1	2	-2	3.0	1.3
COc1cc(Cl)ccc1OC1(C)CCN(Cc2cccc(OC)c2OC)C1 (configuration not stated)	4	-4	0.6	5.5
CC(C)(C)S(=O)N1Cc2cc(C(=O)NCCCN3CCOCC3)nc(-c3cccc(-c4cccc(F)c4)c3)c2[C@H]1CCO (some centres not stated)	-4	-1	2.8	6.2
Cc1ccc(S(=O)(=O)N(C)C[C@@H]2Oc3c(NC(=O)c4ccncc4)cccc3C(=O)N([C@@H](C)CO)C[C@@H]2C)cc1	-4	7	4.8	-4.3
CC(C)C(=O)N1CCC1(C)C(=O)Nc1ccc(-n2cccc2)cc1 (configuration not stated)	-5	-14	-2.7	6.2
COc1ccc(S(=O)(=O)N[C@@H]2C=C[C@@H](CC(=O)NCCc3ccncc3)O[C@H]2CO)cc1	-4	-1	-0.5	1.1
C[C@@H]1CN([C@@H](C)CO)C(=O)c2cc(-c3ccc(F)cc3)cnc2O[C@H]1CN(C)C(=O)Nc1ccccc1F	-3	-5	-1.4	0.4
CN(C)C(=O)c1cccc(-c2ccc([C@@H]3[C@@H](C#N)N(C(=O)C4CCCCC4)[C@H]3CO)cc2)c1	-5	-8	6.3	-1.0
COc1ccc2c3c([nH]c2c1)[C@@H](CO)N(C(=O)Cc1ccccn1)CC31CCN(Cc2ccccn2)CC1	4	4	-0.3	4.7
O=c1[nH]cnc2c1ncn2C1OC(CO)CC1F (configuration not stated)	13	9	5.2	-9.0
N#Cc1cccc(-c2ccc([C@@H]3[C@H]4CN(C(=O)Nc5cccc(F)c5)CCCCN4[C@H]3CO)cc2)c1	-12	-41	22	-2.8
C[C@H](CO)N1C[C@H](C)[C@H](CN(C)Cc2ccc(C(=O)Nc3ccccc3N)cc2)Oc2c(NS(C)(=O)=O)cccc2C1=O	3	6	-0.5	6.5
Cc1noc(C)c1NC(=O)N(C)C[C@H]1Oc2c(NC(=O)c3ccncc3)cccc2C(=O)N([C@H](C)CO)C[C@H]1C	0	3	-0.6	-1.6
COc1ccc(S(=O)(=O)N(C)C[C@H]2Oc3ccc(NC(=O)Nc4ccc5c(c4)OCO5)cc3CC(=O)N([C@H](C)CO)C[C@@H]2C)cc1	-2	-3	-3.0	2.0
CN1CCN(C(=O)[C@@H]2[C@@H](CO)[C@@H]3Cn4c(ccc(-c5cncnc5)c4=O)[C@@H]3N2CC2CCCC2)CC1	1	11	-1.8	-1.3
COc1ccc(S(=O)(=O)Nc2ccc3c(c2)C(=O)N([C@@H](C)CO)C[C@@H](C)[C@H](CN(C)Cc2ccc(C(=O)O)cc2)O3)cc1	-1	5	-3.1	-3.6
O=C(Nc1ccccc1)N1CCCCN2[C@@H](CO)[C@H](c3ccc(C#Cc4ccccc4)cc3)[C@@H]2C1	-55	-66	-4.8	1.9
CC1(c2nnnn2-c2ccc3c(c2)OCCO3)CCC(=O)N1CC(F)(F)F (configuration not stated)	14	22	-2.3	-0.7
C[C@H](CO)N1C[C@H](C)[C@H](CN(C)C(=O)Nc2ccc(C(C)(C)C)cc2)OCc2cn(nn2)CCCC1=O	-1	-1	1.4	-2.5
C[C@@H]1CCCCO[C@@H](CN(C)C)[C@H](C)CN([C@@H](C)CO)C(=O)c2cc(NC(=O)CCC(F)(F)F)ccc2O1	3	7	-2.8	-0.6
Cc1noc(C)c1S(=O)(=O)Nc1ccc2c(c1)CC(=O)N([C@@H](C)CO)C[C@@H](C)[C@H](CN(C)CC1CC1)O2	0	2	1.5	-0.9
COc1ccc(C(O)c2nc(-c3cccc(C(F)(F)F)c3)cs2)cc1 (configuration not stated)	-61	-79	-24	-2.8
COc1ccc2c3c(n(C)c2c1)[C@@H](CO)N(C)CC31CCN(C(=O)NC(C)C)CC1	5	11	-2.0	-4.8
C[C@@H]1CN([C@H](C)CO)C(=O)c2c(c3ccccc3n2C)-c2ccccc2CO[C@@H]1CN(C)S(=O)(=O)CC(F)(F)F	5	6	-3.4	-0.4
COC(=O)C1=C(C)N(Cc2ccccc2C(F)(F)F)C(=NCc2cc(OC)c(OC)c(OC)c2)NC1CCc1ccccc1 (configuration not stated)	-31	-60	18	7.3
CCc1nc2c(OCc3ccccc3C)cccn2c1N(C)C(=O)c1ccc(C)cc1	-9	-13	-1.9	4.2

# Later entries
molecule | rRNA inh HTS | rRNA inh HTS OD600 | rRNA inh HTS RFP | MLL AF4-AF9 inh
C[C@@H]1CN([C@H](C)CO)S(=O)(=O)c2ccc(-c3cccc(C#N)c3)cc2O[C@@H]1CN(C)C(=O)c1ccncc1 | 0 | -1 | -1.6 | -0.3
O=C(N[C@@H]1CC[C@@H](CCNC(=O)C2CC2)O[C@@H]1CO)c1ccccn1 | 1 | 2 | -2.2 | -0.2
C[C@H](CO)N1C[C@H](C)[C@@H](CN(C)Cc2ccc(Oc3ccccc3)cc2)Oc2ccc(NS(=O)(=O)c3ccc(Cl)cc3)cc2CC1=O | -1 | -4 | 8.1 | 4.2
Cc1noc(C)c1NC(=O)N(C)C[C@@H]1Oc2ccc(NS(=O)(=O)c3cn(C)cn3)cc2C(=O)N([C@@H](C)CO)C[C@@H]1C | 4 | 12 | -4.2 | -2.8
O=C(c1cccnc1)N1C[C@H]2[C@@H](c3ccccc31)[C@@H](CO)N2CC1CCCCC1 | -7 | -18 | 0.1 | 0.5
C[C@H](CO)N1C[C@H](C)[C@@H](CN(C)C(=O)Cc2ccccc2)Oc2cc(-c3ccccc3)ccc2S1(=O)=O | -8 | -30 | -2.6 | 1.9
C[C@@H]1CCCCO[C@@H](CN(C)Cc2ccc3c(c2)OCO3)[C@H](C)CN([C@@H](C)CO)C(=O)c2cc(NS(C)(=O)=O)ccc2O1 | 1 | 6 | -2.1 | 0.5
Cc1noc(C)c1NC(=O)Nc1ccc2c(c1)C(=O)N([C@H](C)CO)C[C@H](C)[C@H](CN(C)C(=O)NC(C)C)O2 | 3 | 1 | -2.6 | -0.1
CO[C@H]1CN(C)C(=O)c2cc(NS(=O)(=O)c3ccccc3)ccc2OC[C@H](C)N(Cc2ccccn2)C[C@H]1C | -7 | -5 | 0.6 | 2.6

# For convenience, 4 of the compounds above:
molecule | rRNA inh HTS | rRNA inh HTS OD600 | rRNA inh HTS RFP | MLL AF4-AF9 inh
C[C@@H]1CN([C@@H](C)CO)C(=O)c2cc(NS(=O)(=O)c3ccc(F)cc3)ccc2O[C@H]1CN(C)Cc1ccc(C(F)(F)F)cc1 | -1 | -27 | 0.4 | -4.1
CCCN(C)C[C@@H]1Oc2cc(C#CCC(C)C)ccc2S(=O)(=O)N([C@@H](C)CO)C[C@@H]1C | 0 | -33 | 36 | 6.8
CO[C@H]1CN(C)C(=O)c2cc(NC(=O)c3nc4ccccc4s3)ccc2OC[C@H](C)N(Cc2ccncc2)C[C@@H]1C | -12 | -13 | 19 | 7.5
COc1cccc(CN2CC3(C2)CN(C(=O)C2CC2)[C@H](CO)c2c3c3ccc(OC)cc3n2C)c1 | 0 | -9 | 12 | 27*
